High-throughput results (PubChem)
GIV-Gai inh = GIV-Galpha-i interaction inhibition; P08753; Galpha-i3/FITC-GIV peptide fluorescence polarization, 90 min; active compounds read low; scaled: aluminum fluoride 0%, vehicle 100%; percent of control (FP), % (test concentration not listed); AID 1224905; hit rate 0.42% among 210,000;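 active means replicate mean at 85% of control or lower, very high polarization wells dropped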;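 further: lower values mean more displacement of the GIV peptide from Galpha-i3; wells of about 15 µL received 100 nL stock; the first replicate is given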
Target sequence (P08753 whole entry, looked up): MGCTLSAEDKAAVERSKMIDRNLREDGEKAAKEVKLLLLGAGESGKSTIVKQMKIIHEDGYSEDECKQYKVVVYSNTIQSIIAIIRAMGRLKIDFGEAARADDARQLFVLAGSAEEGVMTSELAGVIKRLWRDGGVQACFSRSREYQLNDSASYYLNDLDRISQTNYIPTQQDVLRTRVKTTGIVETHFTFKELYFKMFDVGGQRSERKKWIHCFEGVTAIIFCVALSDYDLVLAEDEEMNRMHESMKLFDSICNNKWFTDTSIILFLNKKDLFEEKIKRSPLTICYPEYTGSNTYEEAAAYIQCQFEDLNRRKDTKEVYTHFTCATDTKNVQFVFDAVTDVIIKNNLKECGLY
Sa growth inh = S. aureus growth inhibition; relative growth, % (test concentration not listed); hit rate 0.53% among 170,000; S. aureus RN4220 growth, OD600, 20 h, 42 °C; active compounds read low;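 active means growth at 42 °C up to 50% and 20 or more points under that at 30 °C, or under 10% at both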;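 further: 300 nL library stock went into each well; scaled to the means of positive and negative controls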
HCMV NEC inh = disrupts HCMV UL50-UL53 complex binding; inhibition, % (test concentration not listed); hit rate 0.15% among 190,000; AID 1918969; HTRF UL50-UL53 interaction, normalized percent inhibition;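 active means both replicates at 50% or more, plus weaker picks with an unusually low signal ratio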;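 further: stock transfer was 100 nL into about 20 µL; 0% = negative control wells and 100% = wells with untagged competitor protein; inactives centre near -12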
Sa growth inh second temp = also measured in Sa growth inh; calls as there; relative growth, %; measured here: growth at 30 °C;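 optical density after 20 h as mean of two plates; 100% = untreated growth and lower means inhibition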
An asterisk follows results filed as active; / = no result given; & = joins results of further samples.

SMILES	GIV-Gai inh	Sa growth inh	Sa growth inh second temp	HCMV NEC inh
NC(=O)COC(=O)CSc1cccc2cccc(Cl)c12	/	112	93	-74
N#CC1=C(N)OC2=C(C(=O)CCC2)C12C(=O)Nc1ccccc12 (stereo unspecified)	100	/	/	-12
Cc1n[nH]c(C)c1NC(=O)CSc1ccc(F)cc1	/	88	91	-28
COc1cccc(CNc2ncc(-c3ccccc3)n2C)c1	100	100	92	14
Cc1[nH]n(-c2ccccc2)c(=O)c1/C=C1\SC(=S)N(Cc2ccccc2)C1=O	/	80	105	1
CCc1ccc(C2CC(=O)c3c([nH]c(C(=O)OCC4CCCCC4)c3C)C2)cc1 (stereo unspecified)	104	120	109	0
CC(Nc1nc(C(C)(C)C)cs1)=C(C#N)C#N	/	4.2*	0.0*	-19
CCOc1ccc(-c2nc(CNC)c(C)o2)cc1	102	/	/	-3
Cc1ccc(-c2noc(CNC(=O)COc3cc(C)c(Br)c(C)c3)n2)cc1	103	115	91	-27
Cc1c(C#N)c(/N=C/c2c(O)[nH]c(=O)[nH]c2=O)n(C2CCCCC2)c1C	/	97	97	-14
COc1ccc(-c2nnc(SCC(=O)c3ccc4c(c3)NC(=O)CO4)o2)cc1	/	63	77	-15
Cc1cccn2c(=O)c3cc(C(=O)NCC4CCCO4)c(=N)n(CCN4CCOCC4)c3nc12 (stereo unspecified)	109	105	96	-84
O=C(Cn1nc(Cc2cccnc2)c2ccccc2c1=O)N1CCN(c2ccc(F)cc2)CC1	106	110	82	-4
COc1ccc2nc(SCC(=O)Nc3ccc(Cl)c(C(=O)O)c3)[nH]c2c1	102	/	/	14
Cc1ccc(S(=O)(=O)Nc2cc3c(cc2N2CCOCC2)n(C)c(=O)n3C)c(C)c1	104&106	94	85	-8&-18

Two neighbouring entries out of the list so far, quoted:
SMILES	GIV-Gai inh	Sa growth inh	Sa growth inh second temp	HCMV NEC inh
NC(=O)COC(=O)CSc1cccc2cccc(Cl)c12	/	112	93	-74
N#CC1=C(N)OC2=C(C(=O)CCC2)C12C(=O)Nc1ccccc12 (stereo unspecified)	100	/	/	-12

(further entries)
SMILES	GIV-Gai inh	Sa growth inh	Sa growth inh second temp	HCMV NEC inh
CCOC(=O)N1CCN(C(=O)c2ccc3c(=O)n(CC4CCCO4)c(=S)[nH]c3c2)CC1 (stereo unspecified)	103	117	91	/
CCOC(=O)c1c(C)[nH]c(C)c1S(=O)(=O)N1CCC(C(=O)Nc2cc(C)ccn2)CC1	106&102	97	83	14
Cc1ccc(S(=O)(=O)Nc2ccc(O)c(Sc3ncn[nH]3)c2)cc1	100	104	65	-27
O=C1c2ccccc2C(O)(c2ccccc2)N1c1ccc(N2CCOCC2)cc1 (stereo unspecified)	106	92	102	0
CC(C)n1c(=O)c2ccc(C(=O)NC3CCCC3)cc2n2c(=O)n(CC(=O)NC(C)(C)C)nc12	103	/	/	-37
Cc1ccccc1N1C(=O)c2ccccc2NC1c1ccncc1 (stereo unspecified)	102	116	68	-8
O=C(CC1NCCNC1=O)OCCc1ccccc1 (stereo unspecified)	100	/	/	28
Cc1nn(C)c2ncc3c(=O)n(Cc4ccccc4Cl)n(C)c3c12	102	89	90	-29
Cc1cc(C)nc(NS(=O)(=O)c2ccc(NC(=O)CSc3nc(C)cc(C)n3)cc2)n1	97	/	/	-13
CC(C)(C)NC(=O)c1cc2ccccc2oc1=O	98	92	63	/
CCOC(=O)c1cccc(NC(=O)c2ccc3c(Cl)c4c(nc3c2)CCC4)c1	99	89	89	2
CC(C)(C)NC(=O)CCCc1nc(-c2ccccc2)no1	114	105	93	14
O=C1/C(=C/N2CCCCC2)Nc2ccccc21	148	72	35	/
O=C(N=C1N=C2N=CC=CN2Cc2ccccc21)C1CCCCC1	/	102	89	-14
CCOC(=O)CN1CC23C=CC(O2)C(C(=O)NC2CCCCCC2)C3C1=O (stereo unspecified)	100	95	96	4
Cc1c(Cl)cccc1NC(=O)C(C)N(c1ccccc1)S(C)(=O)=O (stereo unspecified)	99	109	85	-27
Cc1cccc(C)c1NC(=O)C(=O)NCC(c1cccnc1)N1CCc2ccccc21 (stereo unspecified)	102	96	91	-17
COc1ccc(CNC(=O)COC(=O)C2=COCCO2)cc1	/	85	90	-4
Cc1ccccc1-c1nc(CS(=O)CC(=O)N2CCN(c3cc(Cl)ccc3C)CC2)c(C)o1 (stereo unspecified)	107&106	105	82	-4&-2
CCn1c(=S)sc2c(=O)[nH]c(-c3ccc(OC)c(O)c3)nc21	103	102	91	-11
CCOC(=O)c1c(C)oc2ncnc(Nc3ccc(F)cc3Cl)c12	111	105	98	/
COC(=O)c1c(C)oc2ccc(N(C(=O)c3ccncc3)S(=O)(=O)c3ccccc3)cc12	110&103	/	/	-18
Cc1nc2ccc(S(=O)(=O)CCC(=O)N3CCN(Cc4ccccc4)CC3)cc2s1	110	114	92	/
COc1ccc(NC(=O)CCc2c(C)nc3cc(-c4cccc(F)c4)nn3c2C)cc1Cl	103	95	106	9
CCOC(=O)c1sc(NC(=O)/C=C/c2ccc(Cl)cc2)cc1C	/	114	87	-41
CCC(=O)OCCNc1nc(-c2ccccc2)nc2ccccc12	107	109	72	/
CN(C)C(=O)c1c(N)no[n+]1[O-]	99	87	97	-6
O=c1cc(-c2ccccc2)nc2scc(-c3ccc(Cl)cc3)n12	100	124	88	-28
CCCCn1c(SCC#N)nc2ccccc2c1=O	/	112	90	-19
O=C(COC(=O)/C=C/c1ccc(Br)o1)Nc1ccc(N2CCOCC2)cc1	/	92	99	-17
CC1CC(C)(C)CC2(CC(=O)N(c3ccc(Cl)cc3)C2=O)C1 (stereo unspecified)	99	122	102	8
COc1cc2c(cc1OC)C1=C(C#N)CN(CCc3ccccc3)CN1CC2	102	91	59	/
Cc1cc(C)n(-c2nc3ccccc3nc2Nc2ccc3c(c2)OCCO3)n1	103	/	/	-19
COc1ccc(C(=O)SC2=NCCS2)cc1	98	70	95	-14
CCc1ccc(-c2nc(CN3CCC(C(=O)O)CC3)c(C)o2)cc1	102	93	91	3
COc1ccc(C(=O)Nc2ccc3nc(SCC(=O)N4CCCC4)sc3c2)cc1	104	94	85	-20
CCCn1nnc2sc3c(c2c1=O)CCC(C)C3 (stereo unspecified)	107	97	93	-49
O=C(CNCc1ccco1)Nc1ccccc1-n1cccc1	106	107	72	-7
Cc1nn2c3cc(N4CCOCC4)ccc3nc2c2ccccc12	/	96	100	-1
Cn1nnnc1SCC(=O)Nc1ccc(C(=O)NCc2ccc3c(c2)OCO3)cc1	/	89	97	-25
O=C(Cn1ncc2ccsc2c1=O)NCCN1CCN(Cc2ccccc2)CC1	98	81	90	/
Cc1ccc(-c2nc(C)cc(=O)[nH]2)cc1	95	/	/	-7
CCn1c(=O)c(SCC(=O)N2CCN(c3ccccc3)CC2)nc2ccccc21	108	/	/	-60
O=C(c1c2c(nc3ccccc13)C(=O)N(C1CCCCC1)C2)N1CCCc2ccccc21	107	/	/	-3
COc1ccc(-c2onc3ccc(Cl)cc23)cc1	/	114	86	-8
CCOC(=O)c1c(NC(=O)NCCN2CCCc3ccccc32)sc2c1CCCC2	104	/	/	-10
C(=N\N1CCOCC1)/c1cn(-c2ccccc2)nc1-c1ccccc1	/	83	65	-14
COc1ccc(C2=NOC(C(=O)Nc3ccc(C#N)cc3)C2)cc1 (stereo unspecified)	98	86	88	-2
CCOC(=O)N1CCc2c(sc3c2c(=O)n(CCc2ccccc2)c(=O)n3Cc2cc(C)ccc2C)C1	101	101	89	-34
c1ccc2c(c1)nc(NC1CCCCC1)c1nnnn12	110	97	94	9
COc1c2c(nc3occc13)C(CCC(C)(C)O)(OC)C(O)CC2 (stereo unspecified)	108	92	85	-15
O=C(O)C12CCC(C(=O)O)(CC1=O)C(=O)C2	100	119	101	2
C=CCn1cc(C(=O)NCC2CCCO2)c(=O)c2cc(S(=O)(=O)N(CC)CC)ccc21 (stereo unspecified)	99	107	90	-13
Cc1ccccc1NC(=O)CCn1c(C(F)(F)F)nc2cc(S(=O)(=O)N(C)C)ccc21	107	/	/	-8
O=c1cc(-c2ccccc2)[nH]c(=S)[nH]1	99	92	86	/
O=C(NCCO)Nc1c[nH]c2c(Cl)cccc2c1=O	107	91	78	-41
CSC1=NCCN1C(=O)Cc1ccccc1	104	93	89	-25
COc1ccc(CNc2oc(/C=C/c3cccc(OC)c3)nc2C#N)cc1	105	118	96	-3
O=C(CCS(=O)(=O)c1cccs1)Nc1ccc(C(=O)NCc2cccs2)cc1	105	97	86	/
C=CCn1c(C)nc2c(cnn2-c2ccccc2)c1=O	100	79	77	-14

Some of these compounds in order of their number in Sa growth inh second temp, low to high:
| structure | GIV-Gai inh | Sa growth inh second temp |
| --- | --- | --- |
| O=C(CNCc1ccco1)Nc1ccccc1-n1cccc1 | 106 | 72 |
| Cc1c(Cl)cccc1NC(=O)C(C)N(c1ccccc1)S(C)(=O)=O (stereo unspecified) | 99 | 85 |
| O=C(N=C1N=C2N=CC=CN2Cc2ccccc21)C1CCCCC1 | / | 89 |
| CCCCn1c(SCC#N)nc2ccccc2c1=O | / | 90 |
| COc1ccc(CNc2oc(/C=C/c3cccc(OC)c3)nc2C#N)cc1 | 105 | 96 |

Random excerpt: three records from the list, in no set order.
SMILES	GIV-Gai inh	Sa growth inh	Sa growth inh second temp	HCMV NEC inh
COc1cccc(CNc2ncc(-c3ccccc3)n2C)c1	100	100	92	14
CCn1c(=O)c(SCC(=O)N2CCN(c3ccccc3)CC2)nc2ccccc21	108	/	/	-60
Cc1nn(C)c2ncc3c(=O)n(Cc4ccccc4Cl)n(C)c3c12	102	89	90	-29

Next records
SMILES	GIV-Gai inh	Sa growth inh	Sa growth inh second temp	HCMV NEC inh
COc1ccc(Br)cc1S(=O)(=O)NCc1ccccn1	/	94	85	-2
CCOCCCNc1ncnc2c1cnn2-c1ccc(F)cc1	102	84	61	10
COc1ccc(C2CC(c3cccs3)Nc3nc4ccccc4n32)cc1 (stereo unspecified)	/	103	94	9
CNC(=O)c1nnc(-c2cccc(Cl)c2)o1	97	/	/	-19
CCn1cc(C(=O)O)c(=O)c2cc(S(=O)(=O)N(C)C3CCCCC3)ccc21	99	108	82	/
CCN(CC)CCNC(=O)CN1CCn2nc(-c3ccccc3)cc2C1=O	103	/	/	-12
Cc1ccc(/C=C(\NC(=O)c2ccc(C)cc2)C(=O)NCc2ccncc2)cc1	/	82	88	-30
NC(=O)c1c(NC(=O)c2ccc3c(c2)S(=O)(=O)N=C2CCCCCN23)sc2c1CCC2	/	73	94	-23
CCc1ccc(/C=C2\CN(C)C/C(=C\c3ccc(CC)cc3)C2O)cc1	/	40	0	-7
COCc1cc(=O)n2[nH]cc(-c3ccc(Cl)cc3)c2n1	103	113	82	-6
Oc1ccc(Cl)cc1C1=Nc2ccccc2N=C(c2cccc(Br)c2)C1	102	100	103	-6
CCOc1ccccc1C(=O)Nc1ccc(Cl)cc1	102	96	72	/
CC1CCC2C(=O)N(c3cc(Cl)ccc3O)C(=O)C2C1 (stereo unspecified)	110	/	/	2
CCOc1cc(/C=C2/C(=O)N(c3ccccc3)N=C2C)ccc1OS(=O)(=O)c1ccccc1	104	/	/	60*
CCc1ccccc1NC(=O)C1CCCN(c2ncnc3c2nc2n3CCCCC2)C1 (stereo unspecified)	107	118	99	/
CCN(CC)c1ccc(NC(=O)CCS(=O)(=O)c2cccc3nsnc23)c(C)c1	101	103	92	-88
CC#CCC(C)[C@H](O)/C=C/[C@@H]1[C@H]2C/C(=C/CCCC(=O)O)C[C@H]2C[C@H]1O (stereo partly specified)	102	104	96	-25
Nc1ccc(S(=O)(=O)C(F)(F)F)cc1N	/	99	69	-11
CCOC(=O)c1cc(S(=O)(=O)Nc2ccc(OC(F)(F)F)cc2)[nH]n1	105	75	72	/
CCC(C)NC(=O)c1ccc(N(CC)CC)cc1 (stereo unspecified)	/	102	119	2
COc1ccc(N/C=C2\C(=O)c3c(sc(C)c3C)N(C)S2(=O)=O)cc1	108	109	100	8
CCN(CC)CCN(C)Cc1cc(OC)c(OC)cc1OC	104	109	92	-11
COc1ccc(-c2nnc3sc(-c4ccc(N(C)C)cc4)nn23)cc1	106	/	/	-22
CCc1nnc(SCC(=O)Nc2ccccc2Cl)nc1CC	106	117	90	/
CC(=O)Nc1ccccc1OCCOc1ccccc1NC(C)=O	94	92	87	-17
O=C1c2ccccc2CCC1C1(O)C(=O)Nc2ccc(Br)cc21 (stereo unspecified)	90	/	/	-24
O=c1[nH]nc2c3c(cccc13)-c1ccccc1-2	105	105	89	-34
Brc1ccc(Nc2ncnc3ccccc23)cc1	113	96	80	7
COc1ccc(NC(=O)c2oc3ccc(S(=O)(=O)N(C)C4CCCCC4)cc3c2C)c(OC)c1	102	106	81	4
O=C(Nc1cccc(Cl)c1)C1=CC(=O)N2CCN=C2S1	96	82	77	26
Cc1cc(C(=O)N/N=C\c2ccccc2)n[nH]1	107	98	100	-9
O=C(Nc1cc(C(F)(F)F)ccc1Cl)c1cc2nc(-c3ccc4c(c3)OCO4)cc(C(F)(F)F)n2n1	106	93	83	-8
O=C(CC12CC3CC(CC(C3)C1)C2)NCC(=O)N1CCN(Cc2ccccc2)CC1	103	97	97	-16
Cc1ccc(C(=O)CSc2ccc(C(F)(F)F)cn2)cc1	98	96	86	9

Hits appear at their usual frequency; overall some 0.85% were active at least once.
